High-throughput results from PubChem BioAssay.
CBX7 AlphaScr = CBX7 chromodomain binding inhibitors, primary screen, biochemical, AlphaScreen | 66,000 tested, 1.1% active | normalised signal (fraction of DMSO) (no concentration beside the values) | AlphaScreen His6-CBX7 / biotin-H3K27me3 peptide binding; stronger effect = lower value | AID 1224903, 2016; in the data active = normalised signal below about 0.5;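 note: 100 nL library stock added to about 20 µL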
Target sequence (O95931 whole entry, looked up): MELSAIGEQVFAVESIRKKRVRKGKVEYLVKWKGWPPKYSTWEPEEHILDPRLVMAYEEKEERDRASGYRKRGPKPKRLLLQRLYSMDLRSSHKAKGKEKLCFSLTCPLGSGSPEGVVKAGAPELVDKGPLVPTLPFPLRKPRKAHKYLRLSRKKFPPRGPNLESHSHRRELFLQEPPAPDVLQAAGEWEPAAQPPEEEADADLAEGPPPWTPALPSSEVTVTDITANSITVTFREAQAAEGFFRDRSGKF
CBX7 AlphaScr z-score = recorded beside CBX7 AlphaScr, whose call it bears; z-score; measured here: z-score of CBX7 signal; some inactives read as strong as hits; reference of the scale not given here;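 same signal on another scale; lower means less binding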
* marks the source's active call; other numbers are inactive results. This is a subset; rates above refer to the full screens.

SMILES	CBX7 AlphaScr	CBX7 AlphaScr z-score
COc1ccc2nc(NC(=O)c3n[nH]c(=O)c4ccccc34)sc2c1	1.3	1.6
Cc1cc(NC(=O)NC(=O)c2cccc(C(F)(F)F)c2)n[nH]1	0.89	-1.8
O=C(Cn1nc(Cc2ccncc2)c2ccccc2c1=O)Nc1ccc(Cl)cn1	1.2	2.3
C=CCN1C(=O)N(c2ccc(F)cc2)C(=O)C1CC(=O)Nc1ccc(OCC)cc1 (stereo not drawn)	1	0.42
Cc1nc(Nc2ccc(C)c(F)c2)c2c3c(sc2n1)CCCC3	0.85	-4.1
COCCNC(=O)c1ccc2c(c1)ncn2-c1cc(OC)c(OC)c(OC)c1	0.85	-1.8
Cc1ccc2c(C)nc(Nc3nccc(C)n3)nc2c1	1	0.53
CC(=O)Nc1ccc(N2C(=O)CC(NC3CCN(Cc4ccccc4)CC3)C2=O)cc1 (stereo not drawn)	0.97	-0.85
CCCc1ncc(C(O)c2ccc(C)cc2)n1C (stereo not drawn)	0.84	-0.63
COc1ccc(-c2noc(-c3ccc(C)c(Cl)c3)n2)cc1OC	1.1	2.7
COc1ccc(OC)c2c(N3CCCCC3)cc(C(F)(F)F)nc12	1.1	0.78
COc1ccc(OC)c(CNc2sc3c(c2C(=O)Nc2cc(OC)ccc2OC)CCC3)c1	0.95	-0.5
CC1CC(C)CN(C(=O)CN2C(=O)CCSc3ccccc32)C1 (stereo not drawn)	0.98	-0.37
COc1ccc(-n2c(Cc3cc(=O)[nH]c(=O)[nH]3)nnc2SCC(=O)Nc2ccc(C)cc2)cc1	0.76	-3.6
O=C(CSc1nc(-c2ccc3c(c2)OCO3)cn1-c1ccc(F)cc1)Nc1cccc(F)c1	1	0.22
Cc1ccc(C)c(NC(=O)C2CCN(S(=O)(=O)c3cccc4cccnc34)CC2)c1	0.96	-0.54
COc1ccc(NC(=O)Cn2cnc3sc4c(c3c2=O)CCCC4)cc1OC	0.97	-0.73
C=CCNC(=O)c1cc(=O)[nH]c2ccc(S(=O)(=O)N3CCCCC3C)cc12 (stereo not drawn)	0.99	-0.58
COc1ccc(OC)c(NC(=O)c2c(NCc3ccc(OC)c(OC)c3OC)sc3c2CCC3)c1	0.96	-0.39
CCCNC(=O)C1CCN(Cc2nc(-c3ccc(OC)c(OC)c3)oc2C)CC1	1	0.24

Next section, starting with the last four of the part before.
SMILES	CBX7 AlphaScr	CBX7 AlphaScr z-score
COc1ccc(NC(=O)Cn2cnc3sc4c(c3c2=O)CCCC4)cc1OC	0.97	-0.73
C=CCNC(=O)c1cc(=O)[nH]c2ccc(S(=O)(=O)N3CCCCC3C)cc12 (stereo not drawn)	0.99	-0.58
COc1ccc(OC)c(NC(=O)c2c(NCc3ccc(OC)c(OC)c3OC)sc3c2CCC3)c1	0.96	-0.39
CCCNC(=O)C1CCN(Cc2nc(-c3ccc(OC)c(OC)c3)oc2C)CC1	1	0.24
O=C(Cn1ccc2ccccc2c1=O)NCCC(=O)Nc1nc2ccccc2s1	1	1.2
COc1cccc(N2CCN(C(=O)Cn3nc(Cc4ccncc4)c4ccccc4c3=O)CC2)c1	1.1	1.5
CC(C)OCCCN1C(=O)Cn2cccc2C1C(=O)NC1CCCCC1 (stereo not drawn)	1	0.039
Cc1ccc2cc(CCNC(=O)c3ccc(Cl)cc3)c(=O)[nH]c2c1C	1	0.31
O=C(Nc1cc(F)ccc1F)c1cccc2c1C(=O)N(C1CCCCC1)C2	1	0.91
O=C(Nc1ccc(F)cc1)c1cc2cc(Cl)cc(Cl)c2oc1=O	0.95	-0.82
O=C(CN1CCCN(Cc2ccc(F)cc2Cl)C1=O)NCc1ccc(Cl)cc1	1.1	2.2
Cc1ccc(-c2csc3ncnc(Nc4ccc5c(c4)OCCO5)c23)cc1	0.8	-0.41
O=C1CCCC2=C1C(c1ccc3c(c1)OCO3)Nc1ccc(C(=O)c3ccccc3)cc1N2 (stereo not drawn)	0.95	-1.4
CCOc1ccc(-c2cc(C(=O)NCCCN3CCCCC3)c3ccccc3n2)cc1	1.1	2.8
COc1cccc(-c2nc(-c3cccs3)c(-c3cccs3)[nH]2)c1	0.92	-0.08
O=C(O)CCC(=O)N1CCc2cc(S(=O)(=O)NCCCc3ccccc3)ccc21	0.87	-2.2
Cc1onc(-c2ccccc2)c1C(=O)Nc1ccn(Cc2ccc(F)cc2)n1	1	0.99
COc1ccc2nc(C)cc(Nc3ccccc3C(=O)O)c2c1	0.87	-1.8
CCS(=O)(=O)N1CCC(C(=O)NCc2ccc(OC)cc2OC)CC1	1.1	0.91
COc1ccc(-n2nc(C(=O)NCc3cccnc3)c3ccccc3c2=O)c(OC)c1	1	0.83
CCCC1=Nc2cc(C(=O)NC3CC3)ccc2Sc2ccc(C)cc21	1	0.085
CCOC(=O)c1c(NC(=O)c2ccc(OC)cc2)sc2c1CCC2	1.5	2.2
COc1ccc(NC(=O)C2c3cc(OC)c(OC)cc3C(=O)N(C)C2c2ccccc2F)c(OC)c1 (stereo not drawn)	1.2	2.4
Cc1oc(-c2cccc(Cl)c2)nc1CN1CCC(C(=O)NC(C)CCc2ccccc2)CC1 (stereo not drawn)	1.2	2.1
Cc1oc(-c2ccc(Cl)cc2)nc1C(=O)NCCC1=CCCCC1	1	0.087
O=C(NC1CCCCCC1)c1cnn(-c2ccccc2)c1-n1cccc1	1	1.2
Cc1cc(NC(=O)Cc2c(C(=O)O)n(C)c3ccccc23)no1	1.1	0.75
Cc1nc2cc(-c3cccc(F)c3)nn2c(C)c1CCC(=O)NCCCN1CCCC1=O	0.96	-1.5
Cc1ccc(C)c(CNC(=O)c2nc3c(nnn3CC3CCCO3)c(=O)[nH]2)c1 (stereo not drawn)	0.91	-2.1
COc1ccc(-c2nnc(SCC(=O)N3CCOCC3)o2)cc1	1	1.8
Cc1ccc(CNC(=O)Cc2c(C(=O)O)[nH]c3ccc(Cl)cc23)cc1	0.98	-0.21
CN1C(=O)C(O)(CC(=O)c2cccnc2)c2cc(Br)ccc21 (stereo not drawn)	1	0.091
O=S(=O)(Nc1ccc(Cl)cc1)c1cccnc1	1	0.29
COc1ccc(NC(=O)Cn2c(SCc3ccc(C)cc3)nc3ccncc32)cc1OC	0.9	-1.4
Cc1ccc2cc(CCNC(=O)c3ccccc3Cl)c(=O)[nH]c2c1C	1.1	0.77
CC(=O)N1CCc2cc(S(=O)(=O)NC(CC(C)C)C(=O)Nc3cccc(Cl)c3)ccc21 (stereo not drawn)	1	0.2
O=C(Nc1ccc(Oc2ccccc2)cc1)c1cnc2sccn2c1=O	0.89	-1.3
CC(=O)Nc1nc(C)c(-c2csc(Nc3cccc(C(=O)O)c3)n2)s1	0.89	-2
Cc1cc(C)n(-c2nc3ccccc3nc2Nc2ccc(Br)c(C)c2)n1	1.3	7.6
O=C(Nc1ccc(-c2noc(-c3cccs3)n2)cc1)c1ccccn1	1.1	2.9
Cc1cc(C)cc(C(=O)Nc2c(C(=O)Nc3ccc(F)cc3)oc3ccccc23)c1	1.1	0.94
COc1cc2c(cc1OC)C1C(C(=O)N3CCN(c4ccccn4)CC3)c3ccccc3C(=O)N1CC2 (stereo not drawn)	1.1	2.3
COc1ccc(-c2cc(C(=O)Nc3ccc(OC(F)(F)F)cc3)no2)cc1OC	1.1	1.6
COc1cc(OC)cc(C(=O)N2CC(=O)Nc3ccc(F)cc3C2c2ccccc2)c1 (stereo not drawn)	0.98	-0.54
O=C(CCc1nc2ccccc2[nH]1)N1CCN(c2ccccc2)CC1	1.1	1.9
Cc1ccc(CNC(=O)CSCc2cnn(-c3ccccc3)c2-n2cccc2)cc1	1	1.8
COc1ccc(OC)c(Nc2nc(C)nc3sc(C)c(C)c23)c1	0.92	-2
COCCNC(=O)CCc1nc(-c2ccccc2F)no1	0.89	-1.7
CC(=O)Nc1ccccc1-c1nc2ccc(C(=O)N3CCCCCC3)cc2[nH]c1=O	1	0.095
COc1cccc2sc(NC(=O)c3ccccc3Oc3ccccc3)nc12	0.92	-0.19
Oc1ccccc1C(CCN1CCOCC1)c1ccccc1 (stereo not drawn)	1	-0.049
Cc1nc2ncnn2c(C)c1CCC(=O)Nc1ccc(Br)cc1F	1.1	1.4
COc1cc(OC)c(NC(=O)c2cn(-c3ccc(F)cc3F)c(=O)c3ccccc23)cc1Cl	0.99	-0.2
O=C(CCc1nc2sc3c(c2c(=O)[nH]1)CCCC3)N1CCN(c2ccccc2)CC1	1	0.084
COc1ccc(C2=NN(CCC(=O)NC3CC3)C(=O)CC2)cc1	1	0.35
COc1ccc(-c2ccc(=O)n(CC(=O)N3CCN(c4ccccc4OC)CC3)n2)cc1	0.97	-0.93
S=c1sc2c(N3CCCCC3)ncnc2n1-c1ccccc1	1	0.093
CCOc1c(OC)cccc1C1CC(=O)Nc2cc3c(cc21)OCCO3 (stereo not drawn)	0.67	-0.43
COC(=O)c1ccc(NC(=O)CC2Nc3cc(C)c(C)cc3NC2=O)cc1 (stereo not drawn)	0.9	-3.1
CC(=O)Nc1nc(-c2ccc(Cl)c(Cl)c2)cs1	0.92	-1.5
CCOc1ccc(CCN2C(=O)CCC2(C)C(=O)NC2CCCCC2)cc1OCC (stereo not drawn)	1.1	0.44
O=C(NCCc1ccccc1)c1ccc2c(c1)NC(=O)c1ccccc1N2	1.1	0.46
Clc1ccccc1Cc1noc(-c2cccs2)n1	0.88	-1.3
COCCNC(=O)Cn1ncc2c1-c1cc(C)ccc1OC2	0.96	-1.1

Compound profiles (already shown). Order of screens: CBX7 AlphaScr, CBX7 AlphaScr z-score
Cc1nc2ncnn2c(C)c1CCC(=O)Nc1ccc(Br)cc1F is entered as 1.1, 1.4
CC(=O)Nc1ccccc1-c1nc2ccc(C(=O)N3CCCCCC3)cc2[nH]c1=O is entered as 1, 0.095

More compounds:
SMILES	CBX7 AlphaScr	CBX7 AlphaScr z-score
CCOC(=O)c1c(NC(=O)C(C)Oc2ccc(OC)cc2)sc2c1CCCC2 (stereo not drawn)	1	1.3
CC(C)(C)NC(=O)C1CCC(CNS(=O)(=O)c2cccc3cccnc23)CC1 (stereo not drawn)	1	0.84
CCN(CC)S(=O)(=O)c1ccc2c(c1)N(CC(=O)NCCN(C)C)C(=O)CS2	1	1.2
CC(=O)NC(CCS(C)(=O)=O)C(=O)Nc1cc(F)ccc1F (stereo not drawn)	1.1	2.9
COc1cccc(CNC(=O)c2ccc3nc(N4CCC(C)CC4)sc3c2)c1OC	1	0.87
COc1cccc(-c2nc(S(=O)(=O)c3ccccc3)c(NCc3ccccc3)o2)c1	0.89	-0.14
CCOC(=O)C1CCN(C(=O)c2ccc(CNc3c(NC4CCCC4)c(=O)c3=O)cc2)CC1	1.4	0.98
CCN1CCN(c2cc(C)c3cc(NC(=O)c4ccc(Cl)nc4)ccc3n2)CC1	0.95	-2.2
C=CCn1c(SCC(=O)Nc2cccc(OC)c2)nnc1-c1cccs1	1.3	2.6
Cn1cc(I)c(-c2nc(-c3nonc3N)no2)n1	1	0.9
COc1ccc(N2Cc3cccc(C(=O)NCc4cccs4)c3C2=O)cc1	0.87	-2.4
COc1ccc(C2C(=O)N(C3CCCCCC3)CC(=O)N2Cc2ccc3c(c2)OCO3)cc1 (stereo not drawn)	0.78	-0.89
c1ccc(-c2nnn(Cc3nnc4n3CCCCC4)n2)cc1	1.1	2.8
CCOc1ccc(CN2C(=O)c3ccccc3Sc3ccc(C(=O)N4CCCC4)cc32)cc1	1	0.16
Cc1ccc2c(c1)N(CCC(=O)NCc1cccnc1)C(=O)CO2	0.99	-0.18
Cc1ccccc1Nc1c(-c2ccc(Cl)cc2)nc2cnccn12	1.2	2.6
COCc1nnc(NC(=O)c2ccc(S(=O)(=O)N3CCCC3)cc2)o1	0.57	-11
Fc1ccc2[nH]c3c(c2c1)CCN(CCCCc1ccccc1)C3	0.99	-0.19
Cc1nc2ccc(S(=O)(=O)NC(C(=O)NC3CCCCCC3)C(C)C)cc2s1 (stereo not drawn)	1.1	2.1
O=C(C1CCN(S(=O)(=O)c2cccnc2)CC1)N1CCCCCC1	1	1.6

Pulled by structure from the list above, 4 records:
SMILES	CBX7 AlphaScr	CBX7 AlphaScr z-score
CCOC(=O)C1CCN(C(=O)c2ccc(CNc3c(NC4CCCC4)c(=O)c3=O)cc2)CC1	1.4	0.98
CCN1CCN(c2cc(C)c3cc(NC(=O)c4ccc(Cl)nc4)ccc3n2)CC1	0.95	-2.2
CCN(CC)S(=O)(=O)c1ccc2c(c1)N(CC(=O)NCCN(C)C)C(=O)CS2	1	1.2
Fc1ccc2[nH]c3c(c2c1)CCN(CCCCc1ccccc1)C3	0.99	-0.19

(further entries)
SMILES	CBX7 AlphaScr	CBX7 AlphaScr z-score
Cc1cc(C)n(-c2nc3ccccc3nc2Nc2ccccc2)n1	2.4	33
O=C1CC(Cc2ccc(Cl)cc2)C(=O)N1Cc1ccccc1 (stereo not drawn)	0.92	-0.92
COCCCNc1oc(-c2ccc(OC)cc2)nc1C#N	1.1	0.73
CCC1Oc2ccc(Cl)cc2N(CC(=O)NCCc2ccc(Cl)cc2)C1=O (stereo not drawn)	0.64	-6.2
O=C(CSc1nnc(-c2ccccc2Cl)o1)N1CCCC1	1	2
Cc1ccc(CN2CCN(CC(=O)NCCN3CCCC3)C2=O)cc1	1.1	0.94
Fc1ccccc1CN1CCN(Cc2ccc3ccccc3c2)CC1	1.1	1.5
Cc1nc2cc(-c3ccc(Cl)cc3)nn2c(C)c1CCC(=O)N1CCN(c2ccc(F)cc2)CC1	1.1	1.6
CC(C)N(Cc1nc(-c2ccccc2)no1)C(=O)c1cccc(Cl)c1	0.98	-0.41
O=C(Cc1c(C(=O)O)[nH]c2ccc(Cl)cc12)NCC1(c2ccccc2)CCCC1	1	1.4
Cc1ccc2c(c1)N(CC(=O)NC1CCCC1)C(=O)CO2	1.2	3.1
COCCCNC(=O)C1CCN(Cc2nc(-c3cccc(Cl)c3)oc2C)CC1	1.1	3.5
